# HIV TAR-Tat – HIV-1 TAR-Tat binding disruption; HIV-1 TAR RNA, Tat peptide displacement FRET; hits give high values; z-score (test concentration not listed); 100,000 tested, 0.6% active;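 note: score is relative to mean and SD of negative controls; some compounds called inactive have numbers as strong as hits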
# CDC25B-CDK2 inh – human CDC25B-CDK2/CyclinA binding inhibition; 94,000 tested, 0.72% active; AID 1259370; z-score (test concentration not listed); P30305+P24941; HTRF CDC25B-CDK2/CyclinA binding, anti-His/anti-Flag; hits give high values;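 note: score is relative to mean and SD of negative controls; strong numbers were not always called active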
# An asterisk follows results filed as active; / = not tested or not shown.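 Rule for the calls: active = z-score from 3 up in half or more of its runs; inactive = the rest.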
compound	HIV TAR-Tat	CDC25B-CDK2 inh
Cc1cccc(N2CCN(c3ccc4cc(S(=O)(=O)N5CCCC5)ccc4n3)CC2)c1C	2.33	/
CCc1cccc(NS(=O)(=O)c2c(C)nc3sc(C)cn3c2=O)c1	-0.37	/
O=C(NCCc1ccccc1)Oc1ccc(Cl)cc1	/	-0.38
CC1=C(c2ccc(F)cc2)S(=O)(=O)NC1=NC1CCN(Cc2ccccc2)CC1	0.61	/
Cc1nnc(NC(=O)c2nn(-c3ccc(F)cc3)ccc2=O)s1	0.94	-1.97
COc1ccc2c(c1)c1c(c(=O)n(-c3cccc(Cl)c3)c(=O)n1C)n2C	-1	/
Cn1ncc2c(NCc3ccccc3Cl)ncnc21	-1.28	/
CCOC(=O)c1c(NC(=O)c2csc3c2CCCC3)sc2c1CCCC2	/	-1.06
CCc1cccc(C)c1NS(=O)(=O)c1ccc(-c2cc(C)[nH]n2)s1	-1	/
O=C(CC(C(=O)c1cccnc1)c1cccs1)c1ccc(Cl)cc1 (stereo not drawn)	/	-1.96
Cc1nc(N(C)C)cc(N2CCN(C(=O)Nc3cccc(F)c3)CC2)n1	0.5	-2.31
CC1=C(c2ccc(C)c(C)c2)S(=O)(=O)N(Cc2ccc(C(=O)NCc3ccc(C)o3)cc2)C1=O	0.08	/
N=C(N)SCc1ccc(-c2csnn2)cc1	/	-1.63
COc1ccc(C2=CSC3=NCCN23)cc1	0.28	0.45
CCCN1C(=O)C2(/C(=C(/O)c3ccc(C)c(F)c3)C(=O)C(=O)N2CC2CCCO2)c2ccccc21 (stereo not drawn)	-0.71	-0.53
CCC1Sc2ccc(S(=O)(=O)CCC(=O)Nc3ccccn3)cc2NC1=O (stereo not drawn)	-1.25	/
N#Cc1c(NC(=O)COc2ccc(Cl)cc2)sc2c1CCCC2	1.9	-1.21
CSc1ccc(Oc2ccc(N)cn2)cc1	/	-1.77
c1ccc(-c2noc(NCc3cccs3)n2)cc1	0.65	/
O=S(=O)(c1ccc2nc(N3CCN(c4ccccc4)CC3)ccc2c1)N1CCCCC1	1.26	/
Cc1c(C(=O)N2CCCCC2)c(S(=O)(=O)Nc2ccc3c(c2)OCCO3)c(C)n1C	-1.6	/
COc1ccc(C)cc1-n1nnc(-c2nc(-c3ccccc3)no2)c1C	1.03	/
O=C(CSc1ncccn1)Nc1cccc2nsnc12	1.06	-2.18
Cn1cc([N+](=O)[O-])c(C(=O)Nc2ccc(Cl)cc2)n1	1.81	-1.11
CCOC(=O)c1c(C)[nH]c(C)c1S(=O)(=O)N(C)CC(=O)NCc1cccs1	0.24	/
Nc1c(-c2nc(-c3ccccc3)cs2)c2ccccn2c1C(=O)c1cccs1	0.36	24.6*
Cc1noc(/C=C/N(C)C)c1S(=O)(=O)N1CCCC(C(=O)NC2CCCCC2)C1 (stereo not drawn)	/	0.18
CCCCCCn1c(C2CC(=O)N(c3ccccc3)C2)nc2ccccc21 (stereo not drawn)	2.09	-0.96
c1ccc(N2CCN(c3c4c(nc5ncnn35)CCCC4)CC2)cc1	0.69	/
Cc1cc(-c2ccc(C)c(S(=O)(=O)NCCN3CCCC3)c2)on1	1.45	/
C=CCOC(=O)COc1cc2oc(=O)c3c(c2cc1Cl)CCCC3	/	-1.76
CCCNC(=O)CSc1c2c(nc3ccc(Cl)cc13)CCCC2	-0.94	-1.32
COC(=O)CN(c1nc(C)cc(OC)n1)S(=O)(=O)c1ccccc1	-1.01	-0.57
Cc1cccc(N(C)Cc2cc(=O)n3ccsc3n2)c1	-0.29	/
Cc1cc(=O)nc2c3ccccc3n(CC(=O)NCCCN3C(C)CCCC3C)n12 (stereo not drawn)	0.34	-1.71
CCC1CCCCN1C(=O)C1CCN(S(=O)(=O)c2ccc3c(c2)oc(=O)n3C)CC1 (stereo not drawn)	/	-0.37
N#Cc1c(OCC(F)(F)F)ccc(S(=O)(=O)Nc2ccc(C(=O)O)cc2)c1OCC(F)(F)F	/	0.04
Cc1cc(C)cc(Oc2coc3cc(OCC(=O)OC(C)C)ccc3c2=O)c1	3.9	-0.52
Cc1ccc(Nc2nnc(-c3ccc(C)c(S(=O)(=O)N4CCOCC4)c3)c3ccccc23)cc1	0.3	-5.41
CN1C(=O)OC(c2ccccc2)C1=O (stereo not drawn)	/	-0.67
COc1cc(NC(=O)N2CC3CCCN3c3ccccc32)cc(OC)c1 (stereo not drawn)	-0.96	/
Cc1ccc(C)c(NC(=O)Nc2nc3c(s2)CCCC3)c1	0.39	/
Cc1nn(CC(O)CN2c3ccccc3Sc3ccccc32)c(C)c1Br (stereo not drawn)	0.99	-3.55
O=C(Nc1ccc(F)cc1F)N1CCN(C(=O)c2ccco2)CC1	0.31	-1.25
O=C(Oc1ccccc1C(=S)N1CCCCC1)c1cc([N+](=O)[O-])cc([N+](=O)[O-])c1	/	-1.38
C=CCN1C(=O)C(O)(CC(=O)c2ccc(C)s2)c2ccccc21 (stereo not drawn)	-1.5	0.36
Cc1cc(N=C(N)N=C(N)N)no1	/	-0.75
COc1ccccc1-c1csc2c1NC(=O)CC2c1ccc2c(c1)OCO2 (stereo not drawn)	1.02	/
CC(C)(C)c1ccc(Cn2c(CO)nc3ccccc32)cc1	0.76	-0.15
Cc1c(CNCc2ccc3c(c2)OCO3)c(C(=O)O)c(C)n1Cc1ccccc1Cl	1.87	/
Fc1ccccc1-c1noc(NCC2CCCO2)n1 (stereo not drawn)	0.83	/
CC1CCN(S(=O)(=O)c2cccc3c(S(=O)(=O)N4CCC(C)CC4)cccc23)CC1	0.87	-0.08
Cc1ccc(S(=O)(=O)CCc2nc3ccccc3[nH]2)cc1	/	-1.08
CSc1nnc(-c2csc(S(=O)(=O)Oc3cc(Cl)cc(Cl)c3)c2)n1C	/	-1.83
O=C1N(Cc2ccccc2Cl)c2ccccc2S(=O)(=O)N1c1ccccc1	1.77	/
CC1c2ccsc2CCN1C(=O)c1cccs1 (stereo not drawn)	/	0.96
O=C(O)c1ccccc1C(=O)c1cc(C(F)(F)F)cc(C(F)(F)F)c1	/	-1.75
c1ccc2c(c1)OCC(c1csc3ncnc(N4CCOCC4)c13)O2 (stereo not drawn)	/	-2.25
C=CCOc1ccc(C2c3c(oc4ccccc4c3=O)C(=O)N2c2nnc(C)s2)cc1OCC (stereo not drawn)	0.8	0.54
O=C(c1ccco1)N1CCN(C(=O)C2CC(c3cccc(Br)c3)=NO2)CC1 (stereo not drawn)	-0.5	-2.44

# Record cards, from the list above. Order of values: HIV TAR-Tat | CDC25B-CDK2 inh
# Entry for O=C(O)c1ccccc1C(=O)c1cc(C(F)(F)F)cc(C(F)(F)F)c1 = / | -1.75
# Entry for C=CCOc1ccc(C2c3c(oc4ccccc4c3=O)C(=O)N2c2nnc(C)s2)cc1OCC (stereo not drawn) = 0.8 | 0.54
# Entry for O=C(c1ccco1)N1CCN(C(=O)C2CC(c3cccc(Br)c3)=NO2)CC1 (stereo not drawn) = -0.5 | -2.44
# Entry for Cc1c(CNCc2ccc3c(c2)OCO3)c(C(=O)O)c(C)n1Cc1ccccc1Cl = 1.87 | /
# Entry for C=CCN1C(=O)C(O)(CC(=O)c2ccc(C)s2)c2ccccc21 (stereo not drawn) = -1.5 | 0.36

# Other results:
compound	HIV TAR-Tat	CDC25B-CDK2 inh
O=C(c1ccccc1Cl)N1CCN(Cc2cc(=O)n3nc(-c4ccccc4)sc3n2)CC1	1.22	/
c1ccc2c(c1)c(N1CCCCC1)nn1cnnc21	2.08	-0.67
Cc1ccc(Cl)cc1N1CCN(S(=O)(=O)c2ccc3c(c2)C(C(C)C)C(=O)N3)CC1 (stereo not drawn)	1.33	/
O=C1CCCC2=C1C(c1ccco1)N(C(=O)Nc1ccccc1Cl)c1ccccc1N2 (stereo not drawn)	-0.52	/
C=CCOc1ccc(C2c3c(oc4ccccc4c3=O)C(=O)N2c2nncs2)cc1 (stereo not drawn)	-0.42	-0.41
OCCNc1nc2ccccc2[nH]1	/	-1.77
CCSc1nnc2c(n1)OC(c1ccc(O)cc1)Nc1ccccc1-2 (stereo not drawn)	-1.2	-1
O=C(CSc1ccc(F)cc1)NC1Cc2ccccc2C1	/	-1.82
CCOC(=O)C1CCCN(c2nccc3nc(N4CCOCC4)ncc23)C1 (stereo not drawn)	0.8	-0.14
Cc1ccc(Sc2nc(-c3cccs3)ns2)cc1	/	-0.83
O=C(CCC1CCCC1)Nc1noc2ccccc12	-0.13	-0.61
Cc1nn(-c2ccccc2)c(-n2cccc2)c1CNC(=O)Nc1ccccc1Cl	-0.3	/
COc1cccc(-c2[nH]nc3nc(-c4ccc(OC)c(OC)c4)cc(C(=O)O)c23)c1	-0.35	-0.51
Cc1nnc2sc(SCC(=O)Nc3ccccc3F)nn2c1=O	1.09	/
CN(C)CCN(Cc1ccco1)S(=O)(=O)c1cc2c(cc1Cl)NC(=O)CO2	0.48	/

# Structures listed so far that have an NH in an aromatic ring, in the order listed:
compound	HIV TAR-Tat	CDC25B-CDK2 inh
CCc1cccc(C)c1NS(=O)(=O)c1ccc(-c2cc(C)[nH]n2)s1	-1	/
CCOC(=O)c1c(C)[nH]c(C)c1S(=O)(=O)N(C)CC(=O)NCc1cccs1	0.24	/
Cc1ccc(S(=O)(=O)CCc2nc3ccccc3[nH]2)cc1	/	-1.08
OCCNc1nc2ccccc2[nH]1	/	-1.77
COc1cccc(-c2[nH]nc3nc(-c4ccc(OC)c(OC)c4)cc(C(=O)O)c23)c1	-0.35	-0.51

# (list continues)
compound	HIV TAR-Tat	CDC25B-CDK2 inh
O=C1CC(Sc2cccs2)C(=O)N1c1ccc(F)cc1 (stereo not drawn)	/	-1.6
CCOC(=O)c1sc2nc(C)nc(N(C)C3CCCCC3)c2c1C	/	-2.02
COc1ccccc1C1SCCN1S(=O)(=O)c1ccc(Cl)cc1 (stereo not drawn)	0.4	-1.53
COc1ccc(OC)c(Nc2ncnc3ccccc23)c1	-0.78	-0.25
Cc1nc(-c2ccc(S(=O)(=O)N3CCN(c4ccccn4)CC3)cc2)co1	0.27	/
CN1C(=O)Cc2cc(S(=O)(=O)NCc3ccc(Cl)cc3)ccc21	1.12	/
CCc1nn(CC(=O)NCCC(C)C)c(=O)c2cc3sccc3n12	1.09	-0.75
CCc1nnc2c(NCCC3=CCCCC3)nc3ccccc3n12	0.52	/
Cn1c(=O)[nH]c(=O)c2c1nc(N1CCCCC1)n2CCC(=O)O	/	0.45
Cc1ccc(-c2cnc(C3CC3)o2)cc1S(=O)(=O)N1c2ccccc2CC1C (stereo not drawn)	0.35	/
COc1cc(Cl)c(C)cc1N1CC(O)=C(c2nc3ccc(C)cc3[nH]2)C1=N	1.29	-2.28
CCCN1CCN(C(=O)Cn2nc(CC)n3c(cc4sc(CC)cc43)c2=O)CC1	0.07	-2.72
COc1ccc(NC(=O)N2Cc3cccn3-c3ccccc32)cc1	1.71	/
COC(=O)CSCCC(N)=S	/	-1.45
O=C(Nc1ccccc1Cl)N1CCC(CN2CCc3ccccc3C2)CC1	0.68	/
C/C(=N\OC(=O)c1cccc(C(F)(F)F)c1)c1cccnc1	/	-2.09
Cc1csc(NC2OC(=O)c3ccccc32)n1 (stereo not drawn)	0.21	0.99
O=C(OCc1cc(=O)n2nc(C3CCCCC3)sc2n1)C1CCCCC1	-0.57	/
OCc1cccnc1	1.32	/
O=C(N1CCCC1)C1(c2ccccc2)CCOCC1	0.28	-1.06
CCn1cc(Br)c(C(=O)Nc2ccc(F)cc2F)n1	/	-0.52
CCn1c(NCCSc2nc3ccccc3n2C)nc2ccccc21	0.77	-0.23
CC(=O)N1CCOc2ccc(S(=O)(=O)Nc3ccc(Cl)cn3)cc21	0.6	-0.75
OC(CN1CCCC1)Cn1ccc2ccccc21 (stereo not drawn)	-1.11	-1.78
O=C(NCc1csc(-c2cccs2)n1)[C@H]1CSCN1S(=O)(=O)c1ccccc1F	1.56	/
COc1ccc2nc(NC(=O)CSc3nnnn3C)sc2c1	0.48	-0.5
CCSc1s[nH]c(=O)c1C#N	1.35	-1.76
CC(C(=O)N1CCCC1)N1c2cccc3cccc(c23)S1(=O)=O (stereo not drawn)	1.02	0.27
CN(C)/C=N/c1nnc(C(C)(C)C)s1	/	1.07
Cc1c(C#N)c(Sc2ccccc2N)nc2ccccc12	/	-0.62
O=C(Cn1ncc2c3ccccc3n(Cc3ccccc3F)c2c1=O)NC1CCCC1	-0.41	-1.05
CCOC(=O)c1ccc(NS(=O)(=O)c2cc(/C=C/c3onc(C)c3[N+](=O)[O-])ccc2C)cc1	0.79	/
COc1ccc(-c2nc3sc(C)nn3c2NC2CCCCC2)cc1	-0.72	/
CCOc1ccc(NC(=O)c2nn(-c3ccc(OCC)cc3)ccc2=O)cc1	0.41	0.16
CCOc1ccc(C2c3c(oc4ccc(C)cc4c3=O)C(=O)N2c2nc(C)c(C(=O)OC)s2)cc1 (stereo not drawn)	0.52	-0.03
Fc1ccc(N2CCN(c3ncnc4c3nc3n4CCCCC3)CC2)cc1	1.67	/
CCOc1ccc(-n2c(-c3ccco3)nc3c(cnn3-c3ccc(Cl)cc3)c2=O)cc1	-1.4	/
CCC1Sc2ccc(S(=O)(=O)CCC(=O)NC(C)(C)C)cc2NC1=O (stereo not drawn)	0.23	/
COc1ccc(-c2noc(-c3ccc(F)cc3)n2)cc1	0.48	-0.97
O=C(NCCCO)c1nnc(-c2ccc3c(c2)OCO3)o1	-1.6	/
CC(=O)NC(=O)/C(C#N)=C/N1CCN(Cc2ccccc2)CC1	/	-1
O=C(c1ccc(C(=O)N2CCCC2)cc1)N1CCCC1	/	-0.88
CSc1nc2c(c(Nc3ccccc3C)n1)CCC2	2.56	-1.69
CCn1cc(CNC(=O)c2cc3nc(-c4ccc(C)c(C)c4)cc(C(F)(F)F)n3n2)cn1	/	-2.72
C=CCNC(=O)c1cc(C(C)C)on1	0.27	-0.8
